Compound activity (PubChem)
LASV entry inh: Lassa virus entry inhibition; AID 540256; Lassa virus pseudotype entry inhibition, cell reporter; control for the full effect not named in the record; hit rate 1.2% among 300,000; Potency, µM (highest dose often 37.9 µM), for the others: at the highest dose activity change, negative = inhibition, usual class: inhibitors; active means well fitted inhibition curve with a large enough effect; inconclusive means small, poorly fitted or top-dose-only effect, or effect the other way; inactive means flat fitted curve, though single readings scatter; tested in HEK293 cells; also: % is scaled to controls: 0 for no effect and ±100 for the full control effect; nearly all actives have a fitted effect of over 50% in size; luciferase read-out
StopGo reporter: lowers the luciferase signal of an FMDV 2A StopGo reporter. human cells with a luciferase reporter of 2A StopGo recoding; control for the full effect not named in the record. hit rate 1.2% among 410,000. AID 1159524. Potency, µM (doses to about 57.9 µM), for the others: at the top dose signal change, negative = less light; active = well fitted falling curve with a large enough effect; inconclusive = small, poorly fitted or top-dose-only effect; inactive = no such curve, though single readings can be large or run the other way; tested in HEK293T cells; also: % is scaled to controls: 0 for no effect and ±100 for the full control effect; nearly all actives have a fitted effect of over 45% in size; luciferase light after 4 h
Cruzain noTriton: inhibitors of Trypanosoma cruzi cruzain without detergent; P25779; purified cruzain, Z-FR-AMC fluorescence, no detergent; Potency, µM, for inactives: max response, negative = inhibition, most hits filed as inhibitors; hit rate 2.3% among 200,000;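 also: plate controls were enzyme without inhibitor for no effect and buffer without enzyme for full effect; nearly all actives have a fitted effect of over 40% in size; top concentration of the series not given in the record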
Target sequence (P25779 123-467 limits assumed): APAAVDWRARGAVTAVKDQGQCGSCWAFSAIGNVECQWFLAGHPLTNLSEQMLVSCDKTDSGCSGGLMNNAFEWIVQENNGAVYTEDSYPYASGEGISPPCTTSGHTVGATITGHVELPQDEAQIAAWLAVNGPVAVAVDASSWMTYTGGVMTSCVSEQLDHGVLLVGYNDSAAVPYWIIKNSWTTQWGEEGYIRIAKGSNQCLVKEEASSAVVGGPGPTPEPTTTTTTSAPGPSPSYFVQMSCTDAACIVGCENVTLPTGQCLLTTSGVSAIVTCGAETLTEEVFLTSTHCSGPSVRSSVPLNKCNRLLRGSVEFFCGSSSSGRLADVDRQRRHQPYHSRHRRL
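Purified cruzain at 1.5 nM, pre-incubated 15 min with compound at room temperature in 100 mM sodium acetate pH 5.5, 5 mM DTT, 0.00005% Triton X-100. Reaction started with 2 uM Z-FR-AMC; AMC fluorescence increase over 60 s gives rate.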
NS1 inh: inhibitors of influenza NS1 protein function; S. cerevisiae slowed by influenza A NS1, growth recovery by OD600; Potency, µM (highest dose often 46.1 µM), inactives show at the highest dose activity, positive = more growth; hit rate 0.4% among 270,000; AID 2326; active means well fitted rising curve with a large enough effect; inconclusive means small, poorly fitted or top-dose-only effect; inactive means no such curve, though single readings can be large or run the other way; also: nearly all actives have a fitted effect of over 50% in size
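A cell-based growth assay was used: compounds that relieve NS1-induced slow growth of budding yeast raise OD600. Assay medium was yeast nitrogen base with ammonium sulphate and -URA supplement, pH 6.0, with 2% galactose.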
Marburg entry inh: inhibitors of Marburg virus binding or cell entry; Marburg virus pseudotyped entry inhibition, cell reporter; control for the full effect not named in the record; about a third of the inactives were read at about 46 µM; Potency, µM (doses to about 37.8 µM), for the others: at the top dose activity change, negative = inhibition, hits mostly inhibitors; AID 540276; hit rate 1.8% among 300,000; active = well fitted inhibition curve with a large enough effect; inconclusive = small, poorly fitted or top-dose-only effect, or effect the other way; inactive = flat fitted curve, though single readings scatter; tested in HEK293 cells; about a fifth of its hits are not listed in these tables; also: % is scaled to controls: 0 for no effect and ±100 for the full control effect; luciferase read-out
RE007 growth inh: less growth of the S. pombe RE007 Vpr strain | hit rate 0.21% among 360,000 | Potency, µM (top dose mostly 92.2 µM), for inactives: top-dose activity change, negative = less growth | AID 651644 | S. pombe RE007 Vpr strain, BacTiter-Glo ATP luminescence, 24 h; control for the full effect not named in the record; active = well fitted falling curve with a large enough effect; inconclusive = small, poorly fitted or top-dose-only effect; inactive = no such curve, though single readings can be large or run the other way;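 also: % is scaled to controls: 0 for no effect and ±100 for the full control effect; nearly all actives have a fitted effect of over 50% in size; the assay follows cell death caused by Vpr and the record does not say whether a fall means rescue or toxicity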
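Fission yeast strain RE007, carrying one chromosomally integrated HIV-1 vpr copy, was seeded at OD 0.01 in PMG+AL medium with 23 nL pinned compound. After 24 h at 30 °C and 99% humidity, viability was read by BacTiter-Glo luminescence.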
SARS PLP yeast: blocks SARS-CoV papain-like protease in a yeast assay | S. cerevisiae expressing SARS-CoV PLpro, growth rescue; control for the full effect not named in the record | Potency, µM (titrated, usually from 32.9 µM), without a hit: at the top dose activity, positive = growth rescue | hit rate 0.19% among 330,000; active means well fitted rising curve with a large enough effect; inconclusive means small, poorly fitted or top-dose-only effect; inactive means no such curve, though single readings can be large or run the other way; also: 0% is about no effect; nearly all actives have a fitted effect of over 55% in size; growth read by luminescence after 48 h
Cruzain Triton: inhibitors of Trypanosoma cruzi cruzain with detergent | P25779 | purified cruzain, Z-FR-AMC fluorescence, 0.01% Triton | Potency, µM, inactives show max response, negative = inhibition, hits mostly inhibitors | hit rate 0.43% among 200,000;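 also: plate controls were neutral wells for no effect and buffer without enzyme for full effect; nearly all actives have a fitted effect of over 40% in size; top concentration of the series not given in the record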
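Sodium acetate buffer (100 mM, pH 5.5) containing 5 mM DTT and 0.01% Triton X-100 hosted 1.5 nM cruzain and test compound for 15 min at room temperature. Cleavage of 2 uM Z-FR-AMC was then tracked by fluorescence.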
An asterisk follows results filed as active; ? = inconclusive; . = no result given; & = joins results of further samples; [ ] = dose if it differs, or a comment. Unless noted, calls follow the shape of the dose curve; as a rule, active = well fitted curve in the direction sought with a large enough effect; inconclusive = small, poorly fitted or top-dose-only effect, or another doubt; inactive = no such curve, though single readings can be large; an effect the other way counts as inactive or inconclusive. Potency is read from the fitted curve at half-maximal effect. No enrichment for hits, and some 4.5% of all compounds hit somewhere here.

SMILES	LASV entry inh	StopGo reporter	Cruzain noTriton	NS1 inh	Marburg entry inh	RE007 growth inh	SARS PLP yeast	Cruzain Triton
Cc1ccc(-n2c(Cn3nc(C(F)F)cc3C(F)F)n[nH]c2=S)cc1	24%	18%	-3%	2%	6%	1%	-1%	1.9%
CC(C)(C)c1cnnn1-c1cccc([N+](=O)[O-])c1	-22%[46.1 µM]	-5%	.	1%	6%[46.1 µM]	8%	-1%	.
COc1ccc(-n2c(C)cc(=O)[nH]c2=O)cc1	13%	-9%	.	11%	-10%	5%	2%	.
O=[N+]([O-])c1c(NCCCO)cc(N2CCCCCC2)c2nonc12	-6%	-17%	.	4%	.	-7%	-1%	.
CC(C)c1cccc(C(C)C)c1NC(=O)CCN1C(=O)NC2(CCCC2)C1=O	-2%	-25%	.	.	-2%	-22%	-2%	.
COc1ccc2oc(=N)c(C(=O)Nc3ccccc3Cl)cc2c1	.	23%	.	?	.	-3%	3%	.
COc1ccccc1Nc1nn2c(=O)c3ccc(C(=O)N4CCCC(C)C4)cc3nc2s1 (stereo not given)	?	?	?	20%	?	8%	-1%	-12%
CCC(CO)Nc1ncnc2c1cnn2-c1ccc(OC)cc1 (stereo not given)	.	-4%	1%	1%	.	1%	0%	-1.2%
COC(=O)CNC(=O)C1Cc2ccccc2CN1S(=O)(=O)c1ccc(F)cc1 (stereo not given)	.	-6%	.	1%	.	2%	3%	.
O=C1CC(C(=O)NCCc2ccccc2)SC(=Nc2ccccc2)N1 (stereo not given)	-2%	-8%	.	1%	-8%	-21%	1%	.
Cc1ccccc1C(=O)NCC(c1ccco1)N1CCc2ccccc21 (stereo not given)	?	29%	.	.	?	6%	-4%	.
NC(=O)c1c(NC(=O)c2cccs2)sc2c1CCCCCC2	?	.	15%	-73%	?	7%	?	-7.1%
Cc1ccc(C)c(NC(=O)N2CC=C(c3c[nH]c4ccccc34)CC2)c1	-8%[46.1 µM]	-17%	-16%	.	.	.	.	-9.6%
Cc1cc(C(=O)CSc2nnc(-c3ccc4c(c3)OCO4)o2)c(C)n1-c1ccc(F)cc1	-2%	?	?	?	11%	-9%	5%	-2.3%
Cc1ccc(C(C(=O)NC2CCCCC2)N2CCOCC2)cc1 (stereo not given)	-13%	-9%	2%	2%	2%	-1%	-1%	7.4%
COc1ccc(-c2cc(C(=O)N3CCCCC3C)no2)cc1OC (stereo not given)	5%[46.1 µM]	60%[activator]	14%	.	?	.	.	-4.1%
CC(=O)[C@@]1(O)CCC2C3CC[C@H]4C[C@@H](O)CC[C@]4(C)C3CC[C@@]21C (stereo not given in full)	0%[46.1 µM]	-13%	.	.	6%[46.1 µM]	-6%	-6%	.
Cn1c(CNc2cccc(Cl)c2)nnc1SCC#N	.	11%	.	.	2%[46.1 µM]	4%	-3%	.
COc1ccc(NC(=O)/C(C#N)=C/c2ccc3c(c2)n(C)c(=O)n3C)cc1	17%	-22%	13%	-1%	10%	-1%	26%	-6.1%
CCOc1ccc(S(=O)(=O)N2CCC(N3CCN(Cc4ccc(C)cc4)C(=O)C3=O)CC2)cc1	4%[46.1 µM]	-15%	-10%	.	.	.	.	1.2%
COc1ccc(-n2c(O)c(/C(C)=N/Nc3ccccc3)c(=O)[nH]c2=O)cc1	?	-2%	.	-2%	?	94%	-1%	.
O=[N+]([O-])c1ccccc1/C=N/n1c(-c2ccccc2)n[nH]c1=S	-26%[46.1 µM]	-11%	.	20%	-19%[46.1 µM]	-17%	7%	.
O=C(CSc1nnc(-c2ccccc2)o1)OCc1ccccc1	8%	-9%	-2%	-16%	10%	-4%	2%	1.2%
COc1cc(OC)c(C(=O)OCC(=O)Nc2cccc(S(=O)(=O)NC3=NCCCCC3)c2)cc1OC	-12%	-12%	.	.	-10%	-20%	.	.
O=C(O)C1C2CCC(O2)C1C(=O)Nc1ccc(F)c(F)c1 (stereo not given)	.	-11%	.	-8%	.	-8%	-3%	.
COc1cccc(NC(=O)CN(C)C(=O)c2cccc(S(=O)(=O)Nc3ccccc3OC)c2)c1	-10%	25%	.	.	-14%	1%	.	.
CCOC(=O)c1c(Oc2ccc(C(C)=O)cc2)nnc(-c2ccccc2)c1-c1ccccc1	-25%[46.1 µM]	?	-10%	.	?	.	.	-8.2%
CCCCN1CC2=C(C1=O)C(c1ccc(O)cc1)NC(=O)N2C (stereo not given)	-1%	-14%	.	.	17%[46.1 µM]	13%	-1%	.
CCOC(=O)CSCC(=O)N1CCC(Cc2ccccc2)CC1	-10%[46.1 µM]	15%	.	-7%	16%[46.1 µM]	3%	1%	.
CN(C)C(CNC(=O)c1cc(S(=O)(=O)N(C)c2ccc(F)cc2)ccc1Cl)c1cccs1 (stereo not given)	-13%	0%	.	.	?	1%	.	.
CCOC(=O)N1CCC(N2C(=O)c3ccccc3C2Nc2cc(OC)c(OC)c(OC)c2)CC1 (stereo not given)	.	-10%	3%	-2%	.	-12%	-3%	-2.5%
Cc1c(C=O)c2ccccn2c1C(=O)c1cccs1	0%	0%	.	.	2%	-3%	-6%	.
CN(Cc1cccc(F)c1)C(=O)c1ccc(NS(=O)(=O)c2ccc3[nH]c(=O)[nH]c3c2)cc1	-16%	-10%	.	.	-3%	-8%	-6%	.
COc1ccc2cc(C(=O)C3CCCN(C(=O)c4cccnc4)C3)ccc2c1 (stereo not given)	?	0%	.	-3%	?	-1%	0%	.
Cc1nc(-c2ccc(Cl)cc2)sc1C1(C)CC(c2ccc(F)cc2)=NO1 (stereo not given)	.	18%	.	17%	.	-10%	-9%	.
CCC(c1ccc(O)cc1)C(CC)c1ccc(O)cc1 (stereo not given)	.	-24%&-13%	0%	.	.	8%[18.4 µM]	.	-4.0%
Cc1cccc(C(=O)N2CCN(c3ccc([N+](=O)[O-])c(NCc4ccco4)c3)CC2)c1	?	0%	-17%	3%	?	4%	-2%	0.0%
Cc1ccc2[nH]c(=O)c(NC(N)=S)nc2c1	5%	-2%	1.6µM*	-3%	-3%	-11%	8%	1.8µM*
COc1ccc(C)cc1NC(=O)CSc1nc(=O)n(Cc2ccncc2)c2c1CCC2	5%[46.1 µM]	0%	?	.	.	.	.	-3.7%
O=C(Cc1cccs1)Nc1nnc(Cc2ccccc2)s1	-7%	-2%	-24%	13%	0%	23%	8%	-8.1%
O=C(O)CN1C(=O)CC(Cc2ccccc2)C1=O (stereo not given)	-10%	25%	-4%	1%	0%	0%	5%	2.1%
COc1ccc(C(=O)NC2CCCCC2)cc1OC1CCN(C(C)C)CC1	6%	-5%	.	2%	?	3%	-6%	.
COc1ccc(C2=Nn3c(nnc3-c3ccccc3)SC2)cc1OC	-27%	-8%	-2%	-3%	-30%	16%	-3%	7.0%
COc1cccc(Oc2coc3cc(OC(=O)N(C)C)ccc3c2=O)c1	.	-16%	.	-7%	.	7%	-1%	.
CCNc1nc2c(c(=O)n(C)c(=O)n2C)n1CCCc1ccccc1	?	?	.	3%	?	0%	3%	.
CC(C)CC[n+]1ccn(-c2nc3ccccc3nc2[N-]S(=O)(=O)c2ccccc2)c1	9%	.	2%	-4%	-15%	-9%	14%	-4.6%
COC(=O)c1ccccc1NC(=O)c1ccc(NS(C)(=O)=O)cc1	4%	-22%	4%	-11%	0%	0%	4%	-1.4%
Cc1cc(Cl)ccc1NC(=S)Nc1cccnc1	-1%	36%[activator]	-3%	-6%	7%	22%	-7%	-2.6%
O=C(O)c1ccc(CSc2nnc(-c3ccccc3Cl)n2-c2ccccc2)cc1	-3%	-11%	.	.	-6%[46.1 µM]	2%	-2%	.
Cc1ccc(C(=O)NNC2=NCCC2)cc1	-8%	.	-16%	3%	15%	0%	-7%	3.6%
Cc1cc(Cl)ccc1NC(=O)COC(=O)c1cc([N+](=O)[O-])ccc1N1CCOCC1	-1%	0%	.	.	?	-3%	-3%	.
CCN(C(=O)CSc1nnc(Cn2nnc3ccccc32)o1)c1nc(-c2ccccc2)cs1	?	?	?	-9%	?	-10%	7%	-1.9%
FC(F)(F)c1cnc2c(c1)[nH]c(=S)n2-c1ccc(Cl)cc1	.	?	.	2%	.	-2%	0%	.
Cc1n[nH]c(=O)n1-c1ccc(C(C)(C)C)cc1	-10%	-8%	.	-2%	0%[46.1 µM]	-4%	0%	.
COc1ccc(NC(=O)CN(C)C(=O)c2ccccc2SCC(=O)N2CCCC2)cc1	-3%	-1%	.	.	9%	-2%	.	.
C(=NC1CCCCC1)c1c[nH]c2ccccc12	-4%	3%	.	.	-5%	-14%	.	.
CC(C)Oc1ccc(CNC(=O)c2cnc3sc(N4CCCCC4)nn3c2=O)cc1	?	-21%	-1%	.	.	.	.	0.7%
O=C(CCCNS(=O)(=O)c1cccc2nsnc12)N1CCCCC1	3%	-15%	-3%	0%	8%	-12%	0%	-0.8%
CC(C)C[C@H]1CNC(=O)C(=O)N1C[C@H](C)NC(=O)Cc1ccccc1	.	3%	.	0%	.	1%	-3%	.
Cc1ccc(S(=O)(=O)N2CCC(C(=O)N3CC(C)OC(C)C3)CC2)cc1 (stereo not given)	6%	7%	.	3%	11%	6%	3%	.

Following part
SMILES	LASV entry inh	StopGo reporter	Cruzain noTriton	NS1 inh	Marburg entry inh	RE007 growth inh	SARS PLP yeast	Cruzain Triton
COc1ccc(-c2ncc3ccccn23)cc1	22%	17%	-9%	-2%	17%[46.1 µM]	-20%	3%	0.2%
O=C(COC(=O)c1cccs1)NCCCc1ccccc1	12%	6%	.	.	4%[46.1 µM]	-24%	0%	.
Cc1ccc(N2C(=O)NC(NS(=O)(=O)c3ccccc3)(C(F)(F)F)C2=O)cc1C (stereo not given)	10%	-16%&7%	3%	?	?	20%	3%	-3.3%
CN(C(=S)Nc1ccccc1F)C1(c2ccccc2Cl)CCCCC1=O (stereo not given)	0%	3%	-3%	6%	-42%	-12%	7%	2.5%
Cc1ccc(CCNC(=O)c2ccc3[nH]c(C)c(C)c3c2)cc1	-17%[46.1 µM]	10%	-13%	.	.	.	.	-23%
